BJeLR lethal: kills HRASV12-expressing BJeLR cells. AID 1554. 300,000 compounds, 0.17% hits. BJeLR (HRASV12) viability, CellTiter-Glo ATP luminescence, 48 h; reference of the scale not given here. inhibition, % (test concentration not listed);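 active = replicate mean above 50%; inconclusive = above 50% but judged a plate artefact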;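 note: 50 nL library stock added to about 25 µL; numbers are from one replicate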
PrP 5UTR inh: inhibition of PrP 5' UTR reporter expression | AID 488862 | cell-based PrP 5' UTR mRNA reporter, plate reader | 340,000 compounds, 0.35% hits | inhibition, % (test concentration not listed);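 active = every replicate at 50% or more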;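 note: 0 = median of the neutral control wells; tested in H4 reporter cells; numbers are from one replicate; inactives centre near -14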
RN4220 kill: kills Staphylococcus aureus RN4220. AID 1259311. S. aureus RN4220 growth, OD600, 16 h. inhibition, % (concentration not given with the values). 330,000 compounds, 0.33% hits;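 active = z-score of -3 or lower and OD600 up to 0.18 on both plates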;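 note: plate controls were untreated cells for no effect and reference antibiotic for full effect; stock transfer was 100 nL into about 80 µL; one replicate is shown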
Sa ugtP lethal: kills S. aureus RN4220 lacking UgtP. growth inhibition, % (test concentration not listed). S. aureus RN4220 ugtP deletion, OD600 growth, 16 h; some inactives read as strong as hits. 330,000 compounds, 0.54% hits;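 active = z-score under -3 and OD600 up to 0.15 on both plates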;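 note: plate controls were untreated wells for no effect and antibiotic for full effect; wells of about 80 µL received 100 nL stock; the first replicate is given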
Bead autofluor: flagged as autofluorescent in microsphere protease counterscreen; fluorescence intensity (no concentration beside the values); AID 624483; 360,000 compounds, 3.1% hits; compound autofluorescence counterscreen, microsphere flow cytometry; hits give high values;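 active = at least 3 SD above the mean of all compounds, about 16000 in these data; inconclusive = too few beads counted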;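 note: 100 nL of 1 mM stock went into each well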
Mtb hypoxia rep: inhibitors of hypoxia-regulated fluorescent reporter in Mycobacterium tuberculosis; M. tuberculosis hypoxia-regulated fluorescent reporter, fluorescence; fluorescence inhibition, % (concentration not given with the values); 300,000 compounds, 0.1% hits;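 active = 35 to 45% if threefold the growth effect, above 45% if 1.5-fold the growth effect; inactive = the rest, general growth blockers included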;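 note: wells of about 50 µL received 100 nL stock; 0% = vehicle wells and 100% = reference inhibitor wells; whole bacteria with a GFP reporter of the hypoxia response; strong numbers were not always called active; many hits fall short of the cut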
Mtb hypoxia rep growth: also measured in Mtb hypoxia rep; calls as there; growth inhibition, %; measured here: M. tuberculosis growth (absorbance);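 0% = vehicle and 100% = reference antibiotic; read after six days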
Active calls of the source: *; ? = inconclusive; / = no result given. Compounds as they come. Share with any hit: about 4%.

SMILES	BJeLR lethal	PrP 5UTR inh	RN4220 kill	Sa ugtP lethal	Bead autofluor	Mtb hypoxia rep	Mtb hypoxia rep growth
COc1ccc(Cn2ccnc2)cc1Br	4	-3	4.3	3	23086*	10	-5
Cc1ccc(COc2ccccc2-c2cc(C(=O)N/N=C/c3cccnc3)[nH]n2)cc1	20	-27	/	/	4598	/	/
CC(C)C(=O)O/N=C(\N)c1ccc(Oc2ccc(Cl)cc2)c([N+](=O)[O-])c1	2	-37	/	/	6168	/	/
Cc1csc(C(=O)O)c1NC(=O)c1c(Cl)cccc1Cl	5	-27	1.3	-3	3628	4	7
COc1cc(C(=O)NC2CC3CCCC(C2)N3C2CC2)cc(OC)c1OC (configuration not stated)	0	-4	5.0	-1	8826	-71	-8
Cc1cc(C)n(-c2cccc(CN3CCC(CO)(Cc4ccccc4)CC3)c2)n1	-3	-16	4.9	20	4193	9	4
CSc1nc(N)n2nc(-c3ccc(Cl)cc3)cc2n1	17	-137	7.0	-2	3785	12	3
O=C(NCCC(=O)N1CCCCCCC1)c1ccc(Br)cc1	/	-9	-1.6	3	2719	-5	-3
COc1cccc(-c2nc(CS(=O)(=O)CC(=O)Nc3cc(F)ccc3F)c(C)o2)c1	0	1	4.7	0	4189	-1	-3
CCCCC(=O)OCc1nc2ccccc2s1	-23	-7	7.8	4	5326	-5	11

2 records drawn at random from those above, as already listed:
SMILES	BJeLR lethal	PrP 5UTR inh	RN4220 kill	Sa ugtP lethal	Bead autofluor	Mtb hypoxia rep	Mtb hypoxia rep growth
CSc1nc(N)n2nc(-c3ccc(Cl)cc3)cc2n1	17	-137	7.0	-2	3785	12	3
COc1ccc(Cn2ccnc2)cc1Br	4	-3	4.3	3	23086*	10	-5

The list goes on:
SMILES	BJeLR lethal	PrP 5UTR inh	RN4220 kill	Sa ugtP lethal	Bead autofluor	Mtb hypoxia rep	Mtb hypoxia rep growth
CCc1ccc2c(c1)cc(CN(Cc1ccco1)C(C)=O)c1nnnn12	1	3	6.2	-3	3462	11	1
COc1ccc(CNc2ncnc3cc(OC)c(OC)cc23)cc1	-1	-7	7.7	9	2684	/	/
O=C1CC(=O)N(Cc2cccs2)C(=O)N1	-2	-19	-1.7	2	4455	-2	0
Cc1sc2nc(CN3CCCC3)nc(N3CCN(C(=O)c4ccco4)CC3)c2c1C	-6	-24	-0.1	5	6080	0	1
Cc1cc(=O)cc(C)n1-c1ccc2c(c1)nc(C)n2-c1ccccc1	0	-3	2.9	7	10735	1	-8
CC(=O)C1=C(O)C(=O)N(CCc2c[nH]c3ccccc23)C1c1ccccc1 (configuration not stated)	-1	-22	21	5	2264	5	5
CCOc1ccc(NC(=O)CSc2nc(C3CC3)nc3ccccc23)cc1	-3	-16	6.4	3	3685	-1	0
CN(C)S(=O)(=O)Nc1ccc2c(c1)OCO2	16	-61	1.1	3	11569	2	7
CCCCCN(C(=O)CCC(=O)OC(C)C(=O)c1ccc(Cl)cc1)c1c(N)n(CCCC)c(=O)[nH]c1=O (configuration not stated)	-6	1	3.3	0	5451	-5	5
O=C(/C=C/c1ccccc1)c1ccccc1O	-2	-21	/	/	2957	/	/
O=C1Nc2ccc(Br)cc2/C1=N/N=C/C1=C(N2CCOCC2)C(=C\c2ccccc2)/CC1	9	-9	/	/	2580	/	/
Cc1cnc(C(=O)OC(C(=O)c2ccccc2)c2ccccc2)cn1 (configuration not stated)	/	/	2.0	0	5977	2	2
CCc1ccc(CCN2C(=O)c3ccccc3C2=O)nc1	-7	-2	4.5	1	4618	7	-2
CCCCCCCC(=O)NN=C(C)c1cccnc1	/	/	-6.3	-7	/	2	4
Cc1nc(CN(C)C(=O)C2CCC(=O)N(CCc3cccc(F)c3)C2)cs1 (configuration not stated)	-10	-25	5.0	-8	5522	9	6
Cc1cccc2cc(/C=N/NC(=O)c3ccncc3)c(Cl)nc12	-2	-28	/	/	3608	/	/
Cc1cc(F)c(F)c(C(=O)N2CCC(C)CC2)c1Cl	1	-19	4.7	13	2209	10	4
O=C(N[C@@H](Cc1ccccc1)C(=O)O)c1ccc(C(F)(F)F)cc1	-5	-20	/	/	4023	/	/
O=C(CNC(=O)c1cccc(OC(F)F)c1)Nc1ccc(Cl)cc1	5	-39	-5.3	2	4227	8	1
CC1CCc2sc(C(=O)Nc3ccc(C(N)=O)cc3)cc2C1 (configuration not stated)	-2	-64	-2.0	2	4712	-5	-4
CC(/C=N/NC(=O)Cc1cccs1)=C\c1ccccc1	8	-55	/	/	2505	/	/
CC1CC(C)CN(CCOCCSc2ccccc2)C1 (configuration not stated)	3	-12	4.8	20	2659	12	7
CC(Sc1ccc(Cl)cc1)C(=O)NCc1cccnc1 (configuration not stated)	5	-12	2.9	1	2098	/	/
COc1cccc(C=NN2CCN(Cc3ccccc3)CC2)c1O	/	/	0.3	10	/	7	4
C#CCOCCOCCOCCNc1nc(N2CCN(C(=O)C(CCC(=O)O)n3cc(C(N)CC(C)C)nn3)CC2)nc(N2CCN(C(=O)C(C(C)CC)n3cc(C(N)CO)nn3)CC2)n1 (configuration not stated)	/	/	-2.9	-2	/	-4	4
COc1ccc(CCn2c(C)c(C(C)=O)c(C(C)=O)c2C)cc1OC	-7	-9	5.7	2	3769	-1	1
O=C(/C=C/c1cn(-c2ccccc2)nc1-c1ccc2c(c1)OCCO2)NCCCN1CCOCC1	16	-25	-2.5	-7	4162	17	13
CC(C)(C)c1ccc(C(=O)N2CCNC(=O)C2CC(=O)Nc2ccc(F)cc2)cc1 (configuration not stated)	-2	-3	-3.9	-6	4719	0	-1
CCN1CCN(C(=O)C23CCC(C)(C(=O)C2Br)C3(C)C)CC1 (configuration not stated)	-1	-18	0.3	9	5746	3	-9
O=C1/C(=C/c2ccc(O)cc2)SC(=S)N1Cc1cccnc1	-6	-17	/	/	2010	/	/
COC(=O)C1CSC(C(=O)OC)N1C(=O)Nc1ccccc1 (configuration not stated)	8	-6	2.4	-1	2168	/	/
N#Cc1ccccc1OCC(=O)Nc1cccc(S(=O)(=O)N2CCCC2)c1	/	-15	2.1	3	9029	7	-3
COc1cc(C=Nn2c(C)nc3ccccc3c2=O)cc(OC)c1O	/	/	2.7	0	/	-2	16
CC(=NNC(=O)c1cccc([N+](=O)[O-])c1)c1cccc(NC(=O)C2CC2)c1	/	/	-1.7	8	/	12	19
Cc1cccc2sc(NC(=O)CCNS(=O)(=O)c3cccs3)nc12	4	-26	2.6	-14	4059	13	16
CC12C(=O)N(NC(=O)c3ccncc3)C(=O)C1C1C=CC2C1 (configuration not stated)	15	-20	5.3	8	10047	6	9
Cc1nc(NCC2CCCO2)c2nnn(Cc3c(F)cccc3Cl)c2n1 (configuration not stated)	12	-8	-3.6	-4	4690	3	10
O=C(Nc1ccc(Cl)cc1)C1c2cccc[n+]2CC(=O)N1Cc1ccc2c(c1)OCO2 (configuration not stated)	7	-15	-0.3	4	3043	-5	5
Fc1cccc(C2NCCc3[nH]cnc32)c1 (configuration not stated)	4	-13	7.5	5	2617	2	0
O=C(CC12CC3CC(CC(C3)C1)C2)NCc1ccncc1	5	-15	6.0	8	16408*	5	0
CCCCNc1nc(N)nc(-c2cc(Cl)ccc2O)n1	-11	-89	/	/	2535	/	/
NC(N)=NC1=NC(=O)C(Cc2ccccc2)S1 (configuration not stated)	-8	-1	2.9	0	4012	14	6
Cc1ccc(F)cc1NC(=O)CCNC(=O)c1ccc([N+](=O)[O-])cc1	-4	-30	5.0	11	3834	2	3
C=CCSc1nc(-c2ccc3c(c2)OCO3)cc(C(F)(F)F)c1C#N	-2	/	-8.1	9	10622	-18	-4
CCOc1cc(/C=N\NC(=O)c2ccc(C)nc2)cc([N+](=O)[O-])c1O	1	-19	/	/	19947*	/	/
CC1CCc2nn(CC(=O)N3CCN(C(=O)c4ccco4)CC3)cc2C1 (configuration not stated)	-6	-37	-2.8	1	5466	/	/
O=C(c1c(O)c2ccccc2oc1=O)C1CCC1	14	-4	20	-1	3101	7	4
COc1ccc(NC(=O)/C=N/O)cc1	0	-13	/	/	3330	/	/
CNC(=O)c1ccsc1NC(=O)c1coc2ccccc2c1=O	2	-13	5.7	12	5290	6	1
O=C(CSc1nnnn1-c1ccccc1)CC(=O)Nc1ccc(Cl)cc1	5	9	2.6	-10	2229	/	/

The list goes on, overlapping the part above by 4 compounds.
SMILES	BJeLR lethal	PrP 5UTR inh	RN4220 kill	Sa ugtP lethal	Bead autofluor	Mtb hypoxia rep	Mtb hypoxia rep growth
O=C(c1c(O)c2ccccc2oc1=O)C1CCC1	14	-4	20	-1	3101	7	4
COc1ccc(NC(=O)/C=N/O)cc1	0	-13	/	/	3330	/	/
CNC(=O)c1ccsc1NC(=O)c1coc2ccccc2c1=O	2	-13	5.7	12	5290	6	1
O=C(CSc1nnnn1-c1ccccc1)CC(=O)Nc1ccc(Cl)cc1	5	9	2.6	-10	2229	/	/
O=C(Nc1cc(Cl)c(Cl)cc1Cl)c1cccnc1	-19	-47	-0.9	0	4151	22	7
COc1cccc(C(=O)NN=C2CCCC2)c1	0	-2	2.6	1	?	1	4
Cn1c(=O)c2c(nc(-n3ccnc3)n2Cc2ccccc2)n(C)c1=O	9	6	5.0	-3	4140	0	9
COc1ccc(C2=Nn3c(nnc3-c3ccccc3Cl)SC2)cc1OC1CCOC1 (configuration not stated)	/	5	8.4	1	3786	-4	0
O=c1c2c(-c3ccccc3)csc2ncn1N=Cc1ccc(O)c([N+](=O)[O-])c1	/	/	-2.2	2	/	15	33
COc1ccccc1OCCCn1cc(C#N)c2ccccc21	-4	-13	2.5	11	5669	/	/
CN1C(N)=NC(=O)/C1=C/c1ccc(OC(F)(F)F)cc1	5	-11	2.6	4	2632	8	3
O=C(COc1ccc2ccc(=O)oc2c1)N1CCN(C(=O)C2COc3ccccc3O2)CC1 (configuration not stated)	-4	-14	2.2	7	6647	10	6
Cc1nc2cccc(C(=O)Oc3ccc([N+](=O)[O-])cc3)c2o1	2	3	6.6	4	3361	3	9
CN(C(=O)COC(=O)c1cc(S(=O)(=O)N2CCOCC2)c(Cl)cc1Cl)C1CCS(=O)(=O)C1 (configuration not stated)	3	-32	2.2	1	2605	2	0
O=C(O)CCCNC(=O)c1cccc(C(=O)NCCCC(=O)O)n1	-5	-28	1.8	4	10467	0	-4
O=C(CSc1nnc(CNC(=O)C23CC4CC(CC(C4)C2)C3)n1-c1ccccc1)Nc1ccc(F)cc1	6	-22	2.2	-3	2100	3	-3
FC(F)(F)c1cc(-c2cccs2)n[nH]1	20	-4	5.6	-5	3052	/	/
CCCOc1ccc2oc(=O)c3c(c2c1)CCCN3C(=O)CN(C)Cc1ccccc1	-5	-18	-4.7	-3	3614	/	/
CN1CCN(NC(=O)c2ccc(COc3ccccc3Br)o2)CC1	7	-15	3.3	2	2123	-2	11
Cc1nnc(SCC(=O)NC(C)c2ccccc2)[nH]c1=O (configuration not stated)	2	-7	0.4	6	4990	/	/
Cc1ccc(NC(=O)C2CCN(S(=O)(=O)c3cccs3)CC2)c(O)c1	-10	-5	-2.3	5	5833	-4	9
CCCc1nn(C)c(C(=O)Nc2ccc3ccccc3c2)c1Cl	-4	-34	3.8	-5	10569	10	-2
COc1ccc(CCNC(=O)Cc2nn(C)c(=O)c3ccccc23)cc1OC	0	1	-2.0	0	4425	-6	3
Cc1ccc2nc(NC(=O)c3ccc(NS(=O)(=O)c4cccs4)cc3)sc2c1	-3	-23	5.1	-21	1951	-6	4
CC1Cc2cc(S(=O)(=O)N3CCCC(C(=O)N4CCCCC4)C3)ccc2N1C(=O)C1CC1 (configuration not stated)	-2	-29	3.4	5	4943	4	3
COc1ccccc1N(CC(=O)NCc1ccccn1)S(C)(=O)=O	-9	-17	4.4	10	10479	11	9
Cc1n[nH]c(=O)c2c(NC(=O)CSc3nnc(C4CC4)n3C)oc(C)c12	6	-14	3.2	-2	6333	-4	-2
CC[C@@]12C(=O)N(c3cccc(Cl)c3)C(=O)N1[C@H](c1ccc(Br)cc1)[C@@H]1C(=O)N(C(C)(C)C)C(=O)[C@@H]12	-5	-15	/	/	2906	/	/

Assay outcomes deposited in PubChem BioAssay by several laboratories.
